# Screening data (PubChem BioAssay)
# S1P2 blocker: human S1P2 receptor antagonists, primary screen, cell-based. inhibition, % at 5 µM. 0.21% of 97,000 active. cell-based S1P2 antagonist assay, inhibition at 5 uM. Sphingosine 1-phosphate receptor 2 (Homo sapiens), O95136. AID 736, 2007; in the data active = inhibition above about 45%;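 also: CRE beta-lactamase reporter cells expressing human S1P2 stimulated with S1P; 0% = agonist at EC80 alone and 100% = agonist plus reference antagonist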
# Target sequence (O95136 whole entry, looked up): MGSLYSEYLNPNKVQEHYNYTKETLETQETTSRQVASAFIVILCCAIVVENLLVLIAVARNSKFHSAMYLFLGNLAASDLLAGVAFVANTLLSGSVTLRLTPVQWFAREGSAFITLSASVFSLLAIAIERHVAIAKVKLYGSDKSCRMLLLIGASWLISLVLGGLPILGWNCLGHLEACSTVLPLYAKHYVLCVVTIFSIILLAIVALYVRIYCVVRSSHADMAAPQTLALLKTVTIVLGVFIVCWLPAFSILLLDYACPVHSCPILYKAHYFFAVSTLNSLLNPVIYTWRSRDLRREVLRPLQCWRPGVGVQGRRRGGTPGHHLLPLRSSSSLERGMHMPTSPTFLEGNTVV
# S1P2 ag: S1P2 receptor agonists, primary screen, cell-based; 0.46% of 97,000 active; AID 729, 2007; S1P2-expressing cell line, agonist reporter read-out; activation, % at 4.5 µM; in the data active = activation above about 16%;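 also: 0% = vehicle low control and 100% = maximal reference agonist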
# PLAP act: PLAP enzyme activators, biochemical, luminescence, HTS; activation fold at 20 µM; Alkaline phosphatase, placental type (Homo sapiens), P05187; 1.2% of 96,000 active; purified PLAP enzyme, luminescent substrate read-out; stronger effect = higher value; in the data active = activation fold above about 2
# Target sequence (P05187 whole entry, looked up): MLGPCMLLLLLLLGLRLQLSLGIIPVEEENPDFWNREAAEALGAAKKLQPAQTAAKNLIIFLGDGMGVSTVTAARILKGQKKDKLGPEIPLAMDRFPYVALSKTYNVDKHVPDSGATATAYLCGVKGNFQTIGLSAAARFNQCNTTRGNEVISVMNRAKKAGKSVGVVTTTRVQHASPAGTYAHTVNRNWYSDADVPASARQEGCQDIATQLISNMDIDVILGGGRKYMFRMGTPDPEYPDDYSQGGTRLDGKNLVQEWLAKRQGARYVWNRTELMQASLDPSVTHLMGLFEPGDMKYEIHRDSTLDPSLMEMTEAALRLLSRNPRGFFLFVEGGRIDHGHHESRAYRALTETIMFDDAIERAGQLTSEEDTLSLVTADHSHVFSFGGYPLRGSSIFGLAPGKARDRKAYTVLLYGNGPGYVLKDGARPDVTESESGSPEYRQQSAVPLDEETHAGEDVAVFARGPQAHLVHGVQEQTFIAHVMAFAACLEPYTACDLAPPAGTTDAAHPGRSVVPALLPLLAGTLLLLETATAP
# PostGolgi ctrl: growth inhibition of yeast control strain, primary screen, counter-screen for post-Golgi transport modulator project | efflux-deficient yeast background strain, growth absorbance A615, 16 h | inhibition, % at 10 µM | 5% of 98,000 active | AID 738, 2007
# CD11b adhes inh: inhibitors of CD11b/CD18 adhesion to fibrinogen, primary screen, K562 cells, luminescence; AID 1497, 2009; inhibition, % at 10 µM; Integrin beta-2 (Homo sapiens) + Integrin alpha-M (Homo sapiens), P05107+P11215; ATPlite luminescence; Mn2+ added to activate the integrin; 0.54% of 93,000 active;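 active = primary inhibition of 50% or more at 10 µM, then 40% or more on retest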; also: some results filed as inactive read as strong as hits
# Ecoli WT expand: growth inhibitors of wild-type E. coli, primary screen, strain BW25113, expanded library, OD600; AID 710, 2007; OD600 absorbance; growth inhibition, % at 100 µM; 0.15% of 98,000 active;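 active = growth inhibition above about 50% at one test dose, limit read from the data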;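 also: growth measured after 20 h incubation at 37 °C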
# PostGolgi yeast: phenotypic screen on post-Golgi transport, primary screen; post-Golgi transport phenotypic cell assay; inhibition, % at 10 µM; 0.9% of 98,000 active; AID 739, 2007;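 also: yeast cells grown in 1536-well plates; yeast grown about 18 h at 30C before absorbance read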
# * hit, by the source's call; nt = not tested or not shown. Rule as the data show it, unless noted: active = inhibition above about 30%; inactive = the rest.
# Each structure is followed by: S1P2 blocker	S1P2 ag	PLAP act	PostGolgi ctrl	CD11b adhes inh	Ecoli WT expand	PostGolgi yeast
> Cc1cc(C(=O)NCCC(c2ccccc2)c2ccccc2)c(C)o1
→ 20	-3	1.8	6	8	-1	5
> C(=C1/CCCC2=C1Nc1ncnn1C2c1ccccc1)/c1ccccc1 (configuration not stated)
→ 40	-3	1.3	26	34	4	0
> CCOC(=O)CSc1nnc(-c2ccco2)n1-c1ccc(C)cc1
→ 16	-8	0.9	8	-5	2	12
> O=C(O)CN1C(=O)SC(Nc2ccc(Cl)cc2)C1=O (configuration not stated)
→ -8	-2	0.8	8	-5	7	-3
> O=C(NC1(C(F)(F)F)C(=O)Nc2c1c(=O)[nH]c(=O)n2-c1ccc(F)cc1)c1cccnc1 (configuration not stated)
→ 27	-3	1.2	7	nt	3	5
> Cc1cc(NS(=O)(=O)c2ccc(NC(=O)c3ccco3)cc2)no1
→ -17	-6	1.2	2	2	3	7
> Cc1ccc(-c2cc(C(=O)Nc3ccc4c(c3)OCCO4)c3ccccc3n2)cc1
→ 23	-7	1.3	15	5	-6	-5
> CCSc1nnc(NC(=O)c2ccc3c(c2)OCO3)s1
→ -2	0	1	41*	-44	-5	10
> CC(C)C1Cc2c(sc3c2c(=O)n(-c2ccccc2)c2nncn32)CO1 (configuration not stated)
→ 2	-3	nt	nt	nt	nt	nt
> CC(c1ccccc1)C1CC(=O)N(C2CCCCC2)C1=O (configuration not stated)
→ 2	-3	1	-5	-31	4	14
> O=C(NCCCn1ccnc1)c1ccc(Br)o1
→ -13	-3	1.2	1	-3	2	-9
> COc1ccccc1NC(=O)c1ccc(Cl)c(S(=O)(=O)N2CCOCC2)c1
→ 8	-6	1.1	-4	2	2	-4
> Cc1ccsc1C(=O)N/N=C/C=C/c1ccccc1[N+](=O)[O-]
→ -13	-3	1.5	8	2	-2	-9
> CCOc1ccc(N(CC(=O)N2CCCC2)S(=O)(=O)c2c(C)noc2C)cc1
→ 15	-2	1	12	-10	-1	2
> CCN(c1ccc(NC(=O)COC(=O)CCC(=O)c2ccc(F)cc2)cc1)C(C)C
→ -18	0	1.7	-5	0	6	5
> Cc1ccccc1NS(=O)(=O)c1cc(C(=O)NCCC2=CCCCC2)ccc1C
→ 21	-6	1.1	24	nt	-17	-5
> CCCCNC(=O)c1onc(CCl)c1C(=O)OC
→ 4	-10	1.2	-13	13	4	-5
> CCN(CC)S(=O)(=O)c1ccc(C(=O)N2CCCCC2)cc1
→ 6	-4	1.3	4	-1	0	11
> COc1ccccc1CNc1nc2nc3c(c(=O)n2[nH]1)CCC3
→ 0	-10	0.9	8	0	-14	-4
> CCN(CC)S(=O)(=O)c1cc(C(=O)Oc2cccc(-c3cnc4ccccc4n3)c2)ccc1Br
→ -16	-5	1.6	0	-5	-19	0
> COc1ccccc1CC(=O)Nc1ccc(-c2noc(COc3ccc(Cl)c(C)c3)n2)cc1
→ 6	-3	0.9	-2	-6	-13	7
> CCC(C)NC(=O)C1CCN(S(=O)(=O)c2cccnc2)CC1 (configuration not stated)
→ -2	-3	1	6	12	5	-2
> O=C(Cc1ccccc1)NC1CCN(S(=O)(=O)c2cccc(F)c2)CC1
→ -2	-10	0.9	1	0	-1	17
> FC(F)(F)c1ccccc1NC(=S)N1CCN(c2ncccn2)CC1
→ 1	-5	0.9	17	-2	0	2
> CCc1ccc(NC(=O)CN2C(=O)CSC2=O)cc1
→ -81	-4	nt	nt	nt	nt	nt
> COc1cc(S(=O)(=O)N2CCCCC2)ccc1NC(C)=O
→ -12	-4	0.8	12	-4	-2	-16
> Cc1ccc(C(=O)NCCCn2ccnc2)cn1
→ -2	-6	0.9	1	-20	2	-6
> CC(/C=N/NC(=O)c1cccc([N+](=O)[O-])c1)=C\c1ccccc1
→ -6	-4	1.1	-4	9	-1	2
> COc1ccc(NC(=O)C2CCCN2S(=O)(=O)c2ccc3c(c2)CCC(=O)N3)cc1 (configuration not stated)
→ 1	-3	1.1	9	-7	1	2
> CC(=O)c1ccc(NC(=O)Nc2ccc(Cl)cc2)cc1
→ 0	-1	1.1	-8	67	1	2
> CC(=O)NS(=O)(=O)c1cccnc1Nc1ccc(Cl)c(Cl)c1
→ -23	-7	1.5	3	21	2	10
> Cc1sc2c(c1C)CN(C(C)(C)C)CN2C(=O)c1ccccc1
→ 5	-3	0.8	17	-6	9	4
> COCCNC(=O)c1onc(CCl)c1C(=O)OC
→ -2	-8	1.3	-14	7	8	0
> O=C(NCc1ccco1)NC1CCCCC1
→ -4	-2	nt	nt	nt	nt	nt
> Cc1cccc(N2CCN(C(=O)C3CCCN(S(=O)(=O)c4cnc[nH]4)C3)CC2C)c1 (configuration not stated)
→ -6	-5	nt	3	nt	-1	1
> COc1ccc(-c2cc(CNC(=O)CN3CCN(C)CC3)on2)cc1
→ 9	0	1	-7	-28	5	-3
> CCOC(=O)Cc1csc(NC(=O)c2ccc(Br)s2)n1
→ -14	-11	1.3	5	73	8	-9
> COc1ccc(S(=O)(=O)N(CCCN2CCOCC2)Cc2cccc(OC)c2OC)cc1
→ 0	-2	1.6	18	7	-1	-7
> CN1C(=O)N(C)C2C1N(C)S(=O)(=O)N2C (configuration not stated)
→ 2	-4	0.9	4	5	-4	-1
> CCOC(=O)c1sc(NC(=O)c2ccc(S(=O)(=O)N3CCOCC3)cc2)cc1C
→ -10	-2	0.9	18	-13	-3	-9
> Cc1c(C(=O)Nc2ccc(Cl)cc2)c2ccccn2c1C(=O)c1ccc([N+](=O)[O-])cc1
→ 0	-4	1	8	-45	-12	3
> Cc1cc(NS(=O)(=O)c2ccc(-c3ccccc3)cc2)no1
→ -13	-1	1.3	10	-8	-4	0
> O=C(O)C1C2C=CC(C2)C1C(=O)NCCC1=CCCCC1 (configuration not stated)
→ 18	-5	1	11	1	8	2
> CCOc1cc(S(=O)(=O)N2CCCCC2)ccc1F
→ 20	-6	1.1	9	5	2	22
> CCOC(=O)Cc1csc(NC(=O)c2ccc(S(=O)(=O)N3CCCC3)cc2)n1
→ -12	-7	1.4	0	-7	2	-5
> Cc1ccc(-c2cc(C(=O)NCc3cnn(C)c3C)c3cc(Br)ccc3n2)cc1
→ 4	-3	0.9	50*	-2	3	-9
> CCC(C)(C)NC(=O)C(c1ccc(C)o1)N(Cc1cccs1)C(=O)Cn1nnc2ccccc21 (configuration not stated)
→ 10	-6	1.1	7	-14	-5	-5
> Cc1cc(=O)n(CC=C(Cl)Cl)c2ccccc12
→ -14	-6	0.9	0	6	3	18
> Cc1ccc(NC(=O)C2CCCN2S(=O)(=O)c2ccc(F)cc2)c(C)c1 (configuration not stated)
→ -22	-4	1	5	-10	5	8
> CCOC(=O)C1CCCN(C(=O)CN(c2ccc(OC)cc2)S(=O)(=O)c2c(C)noc2C)C1 (configuration not stated)
→ 6	-6	1.7	9	-7	8	1
> NC(=O)C(c1ccc(Cl)cc1)c1ccc(Sc2ccc(Cl)cc2)nn1 (configuration not stated)
→ 16	-7	1	10	44	3	-2
> N#Cc1nc(Cc2cccc3ccccc23)oc1N1CCN(c2ccccc2)CC1
→ -12	-5	1	27	-2	-23	0
> COC(=O)c1ccc2c(c1)N(Cc1nc(-c3cccc(C)c3)oc1C)C(=O)C1CCCN21 (configuration not stated)
→ -22	-2	1.5	1	-4	-10	3
> Cc1ccccc1NS(=O)(=O)c1ccc2[nH]cc(C(=O)NCCCN3CCOCC3)c(=O)c2c1
→ 10	-4	1.2	5	10	1	13
> CCC(CC)C(=O)NC12CC3CC(CC(C3)C1)C2
→ -7	-1	0.8	7	1	-21	-1
> CCCCc1c(O)nc2sc3cc(OC)ccc3n2c1=O
→ -3	-6	0.8	21	6	1	-3
> O=C1CC(N2CCN(c3nc4ccccc4s3)CC2)C(=O)N1c1cccc(F)c1 (configuration not stated)
→ 4	-6	1.7	17	-6	6	0
> O=C(NCc1ccc(F)cc1Cl)C1CCN(S(=O)(=O)N2CCC3(CC2)OCCO3)CC1
→ -1	-3	1.1	-2	nt	7	-3
> CC(C)[C@H](NC(=O)c1ccccc1)C(=O)OCC(=O)c1ccc2c(c1)NC(=O)CO2
→ -8	-2	1.4	19	-6	21	-3
> COCCn1c(SCc2nc3cc(OC)c(OC)cc3c(=O)[nH]2)nnc1-c1ccncc1
→ -12	-1	1	0	-1	0	7

# More structures
# Each structure is followed by: S1P2 blocker	S1P2 ag	PLAP act	PostGolgi ctrl	CD11b adhes inh	Ecoli WT expand	PostGolgi yeast
> NC1=NC2(CCCCCC2)n2c(nc3ccccc32)N1
→ -4	-1	1.4	-5	nt	12	4
> COC(=O)c1ccc(Cl)c(NC(=O)NC23CC4CC(CC(C4)C2)C3)c1
→ 0	-7	0.9	31*	47	-13	16
> CN=C(Nc1cc(C)nn1-c1ccccc1)c1ccccc1F
→ 1	-2	0.9	-1	0	-2	4
> COc1ccc(CCNC(=O)C2CCCN(S(=O)(=O)c3cnc[nH]3)C2)cc1OC (configuration not stated)
→ 8	-1	1	-5	-16	-1	8
> Cc1ccc(S(=O)(=O)NCC2CCC(C(=O)NCc3ccc4c(c3)OCO4)CC2)cc1 (configuration not stated)
→ -8	-5	1.2	11	0	-4	-16
> CCOc1cc(/C=C2/NC(=O)N(CC(=O)Nc3cccc(C)c3)C2=O)ccc1OC
→ -30	-1	0.9	-9	nt	5	-6
> Cc1ccc(CCN2CC(C(=O)O)CC2=O)cc1 (configuration not stated)
→ -1	-4	0.8	2	22	-1	-5
> COc1ccc(-c2cc(C(F)(F)F)nc(SCCC(=O)NCc3ccccc3)n2)cc1
→ -22	-2	0.8	5	10	-3	9
> COc1cccc(OCC(=O)NNC(=O)c2cccs2)c1
→ -18	-5	1.5	1	3	-1	-3
> COc1ccc(CNC(=O)C2CC(C)=C(C)CC2C(=O)O)cc1 (configuration not stated)
→ 11	-3	1.2	-8	6	-3	-4
> CCc1cccc2c(C(=O)COC(=O)c3nn(C)c(=O)c4ccccc34)c[nH]c12
→ 42	-5	1.7	17	0	-8	2
> COc1ccc(CC(=O)Nc2ccc(-c3noc(-c4cccc(OC)c4)n3)cc2)cc1
→ 1	-13	1	-4	nt	-9	4
> C=CCn1c(=O)c2ccccc2n2c(Sc3nnnn3-c3ccccc3)nnc12
→ -4	-3	1	9	-8	-6	7
> CCOC(=O)N1CCC(NC(=O)c2ccc(CNS(=O)(=O)c3ccc(F)cc3)cc2)CC1
→ 23	1	1.2	1	-12	0	-7
> Cc1c(NC(=O)c2cccc(S(=O)(=O)N3CCOCC3)c2)c(=O)n(-c2ccccc2)n1C
→ 6	-6	1.2	2	4	0	-4
> COC(=O)c1ccc(Oc2cc(C)nc(-n3nc(C)cc3C)n2)cc1
→ -4	-6	1.3	18	nt	-9	0

# The list is partial; count on the stated rates, not on these rows.
